RecA splice inh: inhibitors of M. tuberculosis RecA intein splicing. P9WHJ3. cell-free RecA intein splicing, fluorescence. inhibition, %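 (about 9 µM by stock and volumes)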. 290,000 tested, 0.75% active. AID 2221; in the data active = inhibition above about 30%; inconclusive = no clear call, values can overlap the other calls;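 also: 0% = vehicle wells and 100% = reference inhibitor control wells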
Target sequence (P9WHJ3 whole entry, looked up, canonical isoform): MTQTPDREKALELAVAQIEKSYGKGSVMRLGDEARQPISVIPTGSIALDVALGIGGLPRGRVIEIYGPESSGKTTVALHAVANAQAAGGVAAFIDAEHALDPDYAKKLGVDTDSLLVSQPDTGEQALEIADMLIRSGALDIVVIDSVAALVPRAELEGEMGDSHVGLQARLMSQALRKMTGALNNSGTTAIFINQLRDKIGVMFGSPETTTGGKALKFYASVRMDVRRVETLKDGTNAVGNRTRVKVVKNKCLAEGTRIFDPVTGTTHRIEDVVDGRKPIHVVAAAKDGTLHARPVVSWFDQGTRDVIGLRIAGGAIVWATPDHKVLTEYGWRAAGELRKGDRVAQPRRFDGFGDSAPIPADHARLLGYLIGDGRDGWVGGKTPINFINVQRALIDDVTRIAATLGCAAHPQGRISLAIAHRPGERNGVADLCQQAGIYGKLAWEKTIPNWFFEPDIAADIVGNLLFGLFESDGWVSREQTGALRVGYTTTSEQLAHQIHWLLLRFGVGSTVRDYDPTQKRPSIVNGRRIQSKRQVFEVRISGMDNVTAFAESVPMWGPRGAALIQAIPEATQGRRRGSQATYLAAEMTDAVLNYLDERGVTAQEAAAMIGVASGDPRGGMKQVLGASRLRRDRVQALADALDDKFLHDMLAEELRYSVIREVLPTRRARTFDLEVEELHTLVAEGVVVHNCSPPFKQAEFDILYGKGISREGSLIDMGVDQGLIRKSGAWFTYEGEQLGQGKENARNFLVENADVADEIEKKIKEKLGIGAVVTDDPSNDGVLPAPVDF
Mtb H37Rv: M. tuberculosis H37Rv growth inhibitors, H37Rv strain (AID 1626). M. tuberculosis H37Rv growth inhibition; higher % means a stronger effect. one-dose inhibition, % at 10 µM; IC50 in µM for titrated hits. 220,000 tested, 0.95% active;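 active = confirmed in a dose series; inconclusive = inhibition above 80% but not taken into the dose series; inactive = below 80% or under 30% at every dose of the series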;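 also: bacteria incubated seven days before Alamar blue readout; 0% = bacteria only wells and 100% = bacteria with antibiotic wells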
YopH PTP inh: YopH (Yersinia) phosphatase inhibition; fluorescence Ex485/Em525; inhibition, %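 (about 10 µM by stock and volumes)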; 140,000 tested, 0.16% active; AID 898;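 active = inhibition of 50% or more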;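 also: controls were vehicle for no effect and minimum signal wells for full effect; inactives centre near -20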
Arbovirus anti: blocks arbovirus infection. arbovirus infection cell-based antiviral screen. inhibition, % at 10 µM. 200,000 tested, 0.37% active. AID 1251;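 active = inhibition from about 30%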;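 also: bluetongue infection of BSR cells; cell survival read as ATP light after 72 h; 0% = infected wells without compound and 100% = uninfected wells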
Mtb betalactam: beta-lactam sensitization of Mtb H37Rv. M. tuberculosis H37Rv growth with meropenem, percent inhibition; hits of this screen are not shown here. inhibition, % at 25 µM. 330,000 tested, 0.27% active. AID 434955;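 active = about 74% or more and at least 40 points above the plate without the antibiotic, then above 30% in a dose series; inconclusive = first-round hits that could not be retested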;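 also: growth measured after seven days incubation then overnight dye step; 0% = bacteria only wells and 100% = bacteria with antibiotic; twin plates without the antibiotic show which effects depend on it; some results filed as inactive read as strong as hits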
Arbovirus anti repeat: recorded beside Arbovirus anti, whose call it bears; inhibition, %; measured here: 10K subset replicate screen; many hits read low in the repeat;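 first of two repeat runs on a subset; 0% = infected and 100% = uninfected wells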
* hit, by the source's call; ? = inconclusive; nt = not tested or not shown. Some of the compounds tested. The share of hits here may be higher or lower than overall.

SMILES	RecA splice inh	Mtb H37Rv	YopH PTP inh	Arbovirus anti	Mtb betalactam	others
Cc1ccc(C(NC(=O)N2CCCC2)C(Cl)Cl)cc1F (centres undefined)	-1.7	0%	nt	7	-3
Cc1ccc(C)c(NC(=O)c2ccc(S(=O)(=O)N(C)CC3CCCO3)cc2)c1 (centres undefined)	1.0	nt	nt	nt	?
Cc1cc(C)nc(N2CCCC(C(=O)Nc3nnc(C(C)(C)C)s3)C2)n1 (centres undefined)	-0.2	0%	nt	0	1
Cc1ccc2nc(SCC(=O)Nc3cc(C)on3)[nH]c2c1	0.2	-11%	-19	6	nt
COc1ccc(C(=O)NC(=S)NC2CCCCC2)cc1	7.6	nt	nt	nt	-3
Cc1cc2c(NCC(C)O)ncnc2s1 (centres undefined)	nt	-22%	-71	7	0
COC(=O)c1cn[nH]c1NC(=S)Nc1ccccc1C	0.9	-4%	-34	6	-2
O=c1oc(-c2ccc(Br)o2)nc2ccccc12	23	-3%	-10	22	4
CN(CCOc1ccc(Cl)cc1)c1ccc(S(=O)(=O)N2CCCCC2)cn1	nt	4%	-27	10	-3
CCc1ccccc1NC(=O)NNS(=O)(=O)c1cc(C)ccc1C	-2.5	nt	nt	nt	-12
Cc1nn(CC(=O)Nc2cccc(Cl)c2)c(=O)c2cc(-c3ccccc3)nn12	-1.0	nt	nt	nt	1
CN(Cc1ccccc1)C(=O)CC(=O)N(C)Cc1ccccc1	-0.7	nt	nt	nt	-5
N/C(=N\OC(=O)Cc1ccc(Cl)cc1)c1ccncc1	1.8	4%	nt	-31	0
Cc1ccc(C2(O)CN3CCC2CC3)cc1 (centres undefined)	-1.4	nt	nt	nt	-1
COc1ccc(CSc2nncn2C)cc1F	-0.9	-8%	nt	-3	-6

The last 2 compounds of the part before come first, to join the parts:
SMILES	RecA splice inh	Mtb H37Rv	YopH PTP inh	Arbovirus anti	Mtb betalactam	others
Cc1ccc(C2(O)CN3CCC2CC3)cc1 (centres undefined)	-1.4	nt	nt	nt	-1
COc1ccc(CSc2nncn2C)cc1F	-0.9	-8%	nt	-3	-6
Cc1ccc2c(c1)C(=O)CCN2	-4.5	-4%	-16	-2	7
CCC1=[N+]([O-])C(C)(/C(C)=N\O)N(O)C1(C)C (centres undefined)	-1.8	-3%	-43	-4	4
CC(=O)Nc1ccc(S(C)(=O)=O)c(C)c1	-1.9	7%	-28	11	-3
Cc1cc(Cl)cc(Br)c1OCCCNCC(C)O (centres undefined)	0.9	6%	nt	-26	0
CCc1ccccc1NNC(=O)c1cc(C)on1	-1.2	-4%	nt	nt	66
CCc1cc(-c2n[nH]c(C)c2-c2nc3ccccc3s2)c(O)cc1OCC(=O)NN	0.0	7%	nt	-3	4
Cc1c(O)ccc(C(=O)CN2CCN(c3ccc(F)cc3)CC2)c1O	-4.1	nt	nt	nt	0
COc1ccccc1N(C(=O)c1ccco1)C(C(=O)NC1CCCC1)c1cccs1 (centres undefined)	1.7	nt	nt	nt	-5
O=Cc1cc(CCC(=O)O)ccc1O	-3.8	nt	nt	nt	0
CCC(CO)NC(=O)c1ccc(-c2nn(C)c(=O)c3ccccc23)cc1 (centres undefined)	0.9	-7%	-10	-6	-2
CC(C)C[C@H]1CN=C(Nc2ccccc2)N1CCCCc1ccccc1	4.1	nt	nt	nt	11
CC(/C=C/c1ccco1)=N/NC(=O)Cc1cccs1	3.1	-3%	0	0	12
Cc1nc2cc(C(=O)O)ccc2n1-c1ccc(F)cc1F	0.1	2%	10	3	2
O=C(CNS(=O)(=O)c1ccc(F)cc1)Nc1ccccc1	-0.7	nt	nt	nt	0
CCc1ccc(NC(=O)c2sccc2-n2cccc2)cc1	6.9	-2%	-9	23	48
O=C(c1ccccc1)N1CCN(S(=O)(=O)c2cccs2)CC1	1.7	nt	nt	nt	-13
COCP(=O)(c1ccccc1)c1ccccc1	-1.6	-3%	-2	-1	-7
CC1=C(C(=O)Nc2ccccc2C(=O)N2CCCCC2)SCCO1	-2.6	nt	nt	nt	-6
O=C(NCc1nc2ccccc2[nH]1)c1ccc(Cl)c(S(=O)(=O)N2CCCC2)c1	2.0	1%	-12	-9	-12
O=c1c(-c2ccc(Br)cc2)[n+]([O-])c2ccccc2n1OCc1ccccc1	2.8	1%	nt	nt	4
CCn1c(C)c(CCC(=O)O)c(=O)n2nc(-c3ccccc3OC)cc12	-1.8	-7%	-20	8	-3
CCS(=O)(=O)c1ccc(N=Nc2ccc(O)c3ncccc23)c(OC)c1	2.5	-3%	nt	-26	nt
N/C(=N\N=C\c1ccc(O)cc1O)N[N+](=O)[O-]	-2.5	-8%	-28	-3	-8
CCOC(=O)COc1ccc(-c2nnc(-c3ccccc3)o2)cc1	-0.2	0.41µM*	-12	-9	100
O=C(NNC(=O)c1sccc1-n1cccc1)c1cccc(Cl)c1	0.2	1%	-25	-3	43
CC1CCN(C(=O)c2ccc(NS(=O)(=O)c3ccccc3)cc2)CC1	0.1	nt	nt	nt	-10
C=CCn1c(SCC(=O)c2ccccc2)nnc1-c1cc2ccccc2o1	-0.7	0%	-31	-1	3
COc1ccccc1C(=O)N=Nc1c(O)[nH]c2ccc([N+](=O)[O-])cc12	nt	3%	nt	-8	nt
CCOC(=O)C1CCCN(CCC(=O)Nc2cccc(C)c2)C1 (centres undefined)	-2.9	3%	nt	-5	-7
COc1ccccc1C(=O)NCC(=O)NC1CCCc2ccccc21 (centres undefined)	2.0	-4%	nt	0	1
Cc1nnc2c(NC3CCCC3)nc3ccccc3n12	1.3	-2%	nt	-8	0
Cc1ccsc1/C=N/n1c(COc2ccccc2)n[nH]c1=S	1.2	0%	-32	0	14
CCOC(=O)c1c(N)sc2c1CCC1C(=O)N(C3CCCCC3)C(=O)C21 (centres undefined)	-10.0	11%	-4	8	55
CC(=O)Nc1ccc(S(=O)(=O)NCCc2cn3nc(C)c(C)nc3n2)cc1	-103	nt	nt	nt	4
N#CCc1nn2c(-c3ccccc3)ccnc2c1C#N	-3.8	nt	nt	nt	9
Cc1cccc(NC(=S)NC(=O)/C=C/c2ccco2)n1	-4.6	-2%	-8	-9	-2
CC(C)(C)n1nc2c(c1NC(=O)Cc1cccc3ccccc13)CS(=O)(=O)C2	2.7	8%	nt	16	7
CCCCCCCCOC(=O)c1ccc(N)cc1	0.0	8%	35	-19	38
COc1cc(NC(=O)CNC(=O)Cn2ccc3ccccc3c2=O)cc(OC)c1OC	-0.4	nt	nt	nt	-3
CCOC(=O)C(CCOc1cccc(CC)c1)C(=O)OCC	-4.5	19%	-56	6	98	Arbovirus anti repeat=-4
COc1cc(/C=C/C(=O)OCN2C(=O)c3ccccc3C2=O)ccc1OC(F)F	-2.9	nt	nt	nt	-5
COc1cccc(O)c1CN1CCCC(C(=O)c2cccc(C(F)(F)F)c2)C1 (centres undefined)	5.3	-3%	nt	22	-2
CC(C)(C)S(=O)(=O)/C(C#N)=N/Nc1ccc(Cl)cc1	nt	50%	nt	24	-9
CC1CN(C(=S)SCC(=O)c2ccc([N+](=O)[O-])cc2)CC(C)O1 (centres undefined)	1.1	nt	nt	nt	98
Cc1cc(NC(=O)c2cccs2)n(-c2nc3ccccc3[nH]2)n1	1.4	95%	nt	-8	89
Cc1cc(C)c(NC(=O)CN)c(C)c1	2.2	11%	nt	1	0
CC1CCC2C(=O)N(c3ccc(S(=O)(=O)c4ccccc4)cc3)C(=O)C2C1 (centres undefined)	1.7	-6%	-26	2	-9
O=Cc1ccc(Oc2ncccn2)cc1	-0.6	-3%	nt	2	-2
CCOc1ccc(NC(=O)NC(C)CC)cc1 (centres undefined)	1.2	-7%	nt	-4	1
COc1ccc(OCC(O)CNCCOc2ccccc2OC)c(C(C)(C)C)c1 (centres undefined)	-3.3	nt	nt	nt	13
Cc1ccc2cc3cc(C(=O)N4CCN(Cc5ccccc5)CC4)sc3nc2c1	-4.6	-6%	-18	-5	-7
Cc1cc(C)cc(N(CC(=O)O)S(=O)(=O)c2c(C)[nH]c(=O)[nH]c2=O)c1	-1.8	0%	nt	0	8
OC1(c2cccc(C(F)(F)F)c2)CCN(Cc2nnnn2CCc2ccccc2)CC1	-0.1	8%	32	0	44
Cc1nc(SC2CC(=O)N(c3ccccc3)C2=O)n[nH]1 (centres undefined)	nt	-3%	nt	2	-12
O=C(NCCc1csc(-c2ccccc2)n1)c1c(F)cccc1Cl	-0.1	1%	nt	-11	5
O=C(CN1CCN(c2cccc(Cl)n2)CC1)N1CC(O)CO1 (centres undefined)	20	8%	nt	15	-1
COc1cccc(N2CCN(S(=O)(=O)c3ccc4c(c3)oc(=O)n4C)CC2)c1	-0.5	nt	nt	nt	2
OC(CN1CCN(C(c2ccccc2)c2ccccc2)CC1)c1ccccc1 (centres undefined)	3.5	nt	nt	nt	-6
O=C(NNC(=O)C1C2C=CC(C2)C1C(=O)O)c1cc(Cl)ccc1O (centres undefined)	-2.1	nt	nt	nt	4
Cc1ccc2nc(SCC(=O)N/N=C/c3ccco3)cc(C)c2c1	-2.4	1%	nt	1	2

More structures
SMILES	RecA splice inh	Mtb H37Rv	YopH PTP inh	Arbovirus anti	Mtb betalactam	others
O=C(CCCSc1nc2ccccc2c(=O)[nH]1)c1ccccc1	0.1	9%	nt	-8	8
O=S(=O)(NN1CCOCC1)c1ccc(Cl)s1	-6.0	4%	nt	0	-5
CSc1nc(SCC(=O)O)c2sc3nc(-c4ccccc4)c4c(c3c2n1)CCC4	0.1	-1%	nt	nt	nt
COc1ccc(/C=N/NC(=O)c2ccc(OC)c(OC)c2)cc1COc1c(F)c(F)c(F)c(F)c1F	3.8	nt	nt	nt	0
CS(=O)(=O)N(CC(=O)N1CCCCC1)C1CCCCC1	1.1	-4%	-46	1	-9
Cc1oc(C)c(C(=O)O)c1C(=O)O	-0.7	-5%	nt	nt	9
O=C(Nc1ccc(S(=O)(=O)N2CCCCC2)cc1)C1CCCO1 (centres undefined)	-0.3	nt	nt	nt	-4
COc1ccc(C(=O)Nn2c(C)nnc2-n2nc(C)cc2C)cc1OC	2.2	0%	-28	11	-1
Cc1cccc(/C=N/NC(=O)Cn2nnnc2N)n1	3.0	-15%	nt	nt	-14
O=C(NCc1cccs1)c1cnn2cccnc12	-1.5	-2%	-20	-1	7
CCC(=O)Nc1ccc2c(c1)ncn2-c1ccc(OC)cc1	-2.3	3%	-6	-7	3
O=C(Nc1nccs1)C1C2/C=C\CCCCC21 (centres undefined)	nt	2%	-20	-1	12
CCCc1nc2c(=O)n(C)c(=O)[nH]c2n1CCC	5.7	1%	-21	8	-15
O=C(NCCc1cccc(F)c1)[C@@H]1CSC2c3ccccc3C(=O)N21 (some centres undefined)	1.2	16%	-21	4	-1
O=C(Oc1c(Cl)cc(Cl)c2ccccc12)N1CCCC1	6.3	2%	3	2	-5

Reprinted at random: 4 records from the list.
SMILES	RecA splice inh	Mtb H37Rv	YopH PTP inh	Arbovirus anti	Mtb betalactam	others
O=S(=O)(NN1CCOCC1)c1ccc(Cl)s1	-6.0	4%	nt	0	-5
COc1ccc(C(=O)Nn2c(C)nnc2-n2nc(C)cc2C)cc1OC	2.2	0%	-28	11	-1
CCCc1nc2c(=O)n(C)c(=O)[nH]c2n1CCC	5.7	1%	-21	8	-15
Cc1oc(C)c(C(=O)O)c1C(=O)O	-0.7	-5%	nt	nt	9

Next section:
SMILES	RecA splice inh	Mtb H37Rv	YopH PTP inh	Arbovirus anti	Mtb betalactam	others
O=C(NCCNc1ccc([N+](=O)[O-])cc1)c1cccc(Br)c1	-1.2	1%	-22	4	?
OCC1(CO)COC2(CCCC2)N1	4.5	-6%	-31	0	-8
Nc1sc2c(c1C(=O)c1ccccc1)CCCC2	-0.5	2%	-6	-3	-12
CCOC(=O)CSc1nc(C)c2cc(C)c(C)cc2n1	-2.3	-4%	nt	3	11
C[C@@H]1CC[C@]2(O[C@H](CCO)C[C@@H](O)[C@@H]2O)O1	-0.1	-12%	nt	nt	-9
O=C(c1cc2ccccc2oc1=O)N(Cc1ccc2c(c1)OCO2)Cc1ccco1	1.1	-4%	-25	2	-11
CCc1nc(N)nc2c1C(=O)CC(C)(C)C2	0.5	-4%	4	-2	-1
CCn1c(C)nc2cc(C(=O)NNS(=O)(=O)c3c(C)c(C)cc(C)c3C)ccc21	-1.4	-5%	-30	4	3
N#Cc1ccc(Oc2ccc(C(N)=O)cc2)cc1C#N	2.0	-6%	-14	0	-1
C/C=C(/C)C(=O)Nc1cccc(C2=NOC3(C2)C[C@@H](C(N)=O)N(C(=O)[C@H]2CCC(=O)N2)C3)c1 (some centres undefined)	-0.5	1%	nt	nt	-17
Cc1cc(=O)oc2cc(OCC(=O)OC(C)C(=O)NC3CCCC3)ccc12 (centres undefined)	2.5	-1%	nt	3	7
O=C(Nc1ccccc1Br)C1CCCN1S(=O)(=O)c1cccc2nsnc12 (centres undefined)	2.3	nt	nt	nt	4
Cc1ccccc1OCC(=O)OCC(=O)c1ccc(OCc2ccccc2)cc1	nt	11%	-7	-4	32
